Bioassay records (PubChem)
Sfp inh – inhibitors of Bacillus subtilis Sfp phosphopantetheinyl transferase; Potency, µM, for the others: max response, negative = inhibition, hits mostly inhibitors; Biochemical Sfp PPTase activity, qHTS; 310,000 tested, 3.5% active; AID 1490; active = well fitted inhibition curve with a large enough effect; inconclusive = small, poorly fitted or top-dose-only effect, or another doubt; inactive = no such curve, though single readings can be large or run the other way;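 note: the enzyme is Sfp with the accession as filed and its product quenches rhodamine fluorescence; potency is the fitted concentration of half-maximal effect; 0% = enzyme reaction without inhibitor and -100% = no enzyme wells; top concentration of the series not given in the record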
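Fluorescence-quenching assay: 15 nM Sfp-PPTase preincubated 15 min at room temperature with compound, then 5 uM rhodamine-CoA and 12.5 uM BHQ-2-labelled YbbR peptide added. Fluorescence (ex 525/em 598 nm) read at start and after 30 min; difference gives rate.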
gsp antagonist – antagonizes gsp, the McCune-Albright syndrome mutation | gsp-mutant cells, cAMP HTRF, 30 min; control for the full effect not named in the record | Potency, µM (doses to about 76.9 µM), inactives show top-dose activity change, negative = inhibition, most hits filed as inhibitors | 340,000 tested, 0.4% active | AID 624288; active = falling curve of any shape with a large fitted effect; inconclusive = falling curve, mostly with a smaller effect; inactive = flat or rising curve; cell line not stated here;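 note: intracellular cAMP measured with PDE inhibitor Ro 20-1724 present during compound exposure; potency is the fitted concentration of half-maximal effect; % is set by controls: 0 for no effect and ±100 for the full control effect; nearly all actives have a fitted effect of over 65% in size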
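Cells, 2000/well, grown 16–24 h in DMEM 10% FBS with 0.5 mg/ml G418, then compounds plus […] (300 uM addition stock), 30 min at 37C. cAMP read by HTRF (cAMP-d2 and anti-cAMP antibody-K in lysis buffer) after 30 min RT.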
TRPV1 PAM – potentiators of human vanilloid receptor 1 (TRPV1). 320,000 tested, 0.02% active. AID 540277. Q8NER1. potentiation, % at 8.33 µM. TRPV1-expressing cells, Fluo-8 calcium influx, capsaicin EC20 potentiation; host cell line not named in the record; control for the full effect not named in the record; active means potentiation above 80%; inconclusive means 30% to 80%; inactive means below 30%; note: 0% is about no effect
Target sequence (Q8NER1 whole entry, looked up): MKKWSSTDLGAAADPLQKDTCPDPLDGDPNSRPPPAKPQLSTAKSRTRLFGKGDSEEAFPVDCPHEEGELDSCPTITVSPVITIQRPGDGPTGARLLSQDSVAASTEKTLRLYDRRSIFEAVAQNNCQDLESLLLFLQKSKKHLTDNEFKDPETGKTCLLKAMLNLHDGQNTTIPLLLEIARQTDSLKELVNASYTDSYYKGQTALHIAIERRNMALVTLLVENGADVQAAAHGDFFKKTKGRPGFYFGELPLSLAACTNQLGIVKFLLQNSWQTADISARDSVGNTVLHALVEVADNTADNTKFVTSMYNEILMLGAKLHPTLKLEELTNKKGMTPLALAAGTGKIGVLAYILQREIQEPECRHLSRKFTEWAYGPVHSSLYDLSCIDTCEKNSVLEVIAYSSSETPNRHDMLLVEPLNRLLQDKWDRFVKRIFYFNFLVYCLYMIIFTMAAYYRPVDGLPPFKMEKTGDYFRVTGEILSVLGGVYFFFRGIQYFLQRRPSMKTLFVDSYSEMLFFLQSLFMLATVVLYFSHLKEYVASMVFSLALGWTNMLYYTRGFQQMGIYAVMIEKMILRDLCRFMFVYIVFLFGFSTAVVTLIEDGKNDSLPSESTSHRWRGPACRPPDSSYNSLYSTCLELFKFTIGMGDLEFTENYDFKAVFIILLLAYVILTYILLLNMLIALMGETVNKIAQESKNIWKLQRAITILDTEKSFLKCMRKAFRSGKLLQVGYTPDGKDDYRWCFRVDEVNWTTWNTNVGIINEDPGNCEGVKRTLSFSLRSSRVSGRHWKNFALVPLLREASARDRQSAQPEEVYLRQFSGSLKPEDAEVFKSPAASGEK
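Cells expressing TRPV1 were dye-loaded with Fluo-8 and read kinetically: 10 s baseline, 3 min after compound (agonist portion), then 2 min after EC20 capsaicin (allosteric enhancer portion). Calcium-bound dye fluorescence at 480/520 nm.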
Menin-MLL FL inh – displaces fluorescein MLL peptide from human menin | Fluorescence polarization, fluorescein-MLL peptide displacement from menin | FP activity change, % at 61.4 µM | 290,000 tested, under 10 active; inconclusive = falling polarisation curve, or a change in total fluorescence; inactive = total fluorescence flat and polarisation flat or rising; no compound was filed as active; the % refers to the polarisation; negative = inhibition;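 note: % of control where 0% means no effect; inhibitors lower the polarisation; unlabelled MLL peptide was the positive control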
gsp ag – agonists of gsp mutant (McCune-Albright syndrome) | gsp mutant cells, cAMP HTRF, 30 min; control for the full effect not named in the record | Potency, µM (series often up to 76.9 µM), inactives show top-dose activation (cAMP increase), actives largely listed as activators | 340,000 tested, 0.13% active | AID 624287; active = well fitted activation curve with a large enough effect; inconclusive = small, poorly fitted or top-dose-only effect, or another doubt; inactive = no such curve, though single readings can be large or run the other way; cell line not stated here;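 note: phosphodiesterase inhibitor Ro 20-1724 added with compounds to block cAMP breakdown; potency is the fitted concentration of half-maximal effect; nearly all actives have a fitted effect of over 60% in size; about a fifth of the inactives were tested at one dose only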
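Cells in DMEM/10% FBS with G418 were pretreated with compounds in DMSO plus […] (300 uM stock) for 30 min at 37C. cAMP was measured by HTRF (cAMP-d2 plus anti-cAMP antibody-K) after 30 min at room temperature.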
TRPML1 inh – blocks the human TRPML1 channel | Q9GZU1 | TRPML1-inducible cells, Ca2+ dye fluorescence, FDSS; active compounds read low; inhibition of EC80 agonist-evoked calcium signal | activity change, negative = inhibition, % (concentration not given with the values) | 390,000 tested, 0.02% active | AID 624415; in the data active means activity change below about -50%; inconclusive means about -30% to -50%; inactive means above about -30%;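 note: stimulus is agonist 54-4 at its EC80 concentration; % is set by controls: 0 for no effect and ±100 for the full control effect; the text of the record puts the active cut at -80%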
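TRPML1-DL cells, Tet-induced overnight (~16 h, 37 °C) at 1,500 cells/well, were loaded with Ca8 no-wash dye plus quencher for 45-90 min at room temperature. Compounds were pinned during FDSS kinetic reading; agonist 54-4 at EC80 (4 uM final) then added.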
ClpP mod – qHTS Assay for Activators of ClpP | 340,000 tested, 1.9% active | purified B. subtilis ClpP, FRET peptide cleavage, 20 min | ATP-dependent Clp protease proteolytic subunit (Bacillus subtilis (strain 168)), P80244 | Potency, µM (titrated, usually from 57.5 µM), inactives show at the top dose activity change, negative = active; active = well fitted falling curve with a large enough effect; inconclusive = small, poorly fitted or top-dose-only effect; inactive = no such curve, though single readings can be large or run the other way; note: potency is the fitted concentration of half-maximal effect; the source files actives as falling curves though it sought activators and does not explain the sign; nearly all actives have a fitted effect of over 65% in size; many hits overshoot -100%
Target sequence (P80244 whole entry, looked up): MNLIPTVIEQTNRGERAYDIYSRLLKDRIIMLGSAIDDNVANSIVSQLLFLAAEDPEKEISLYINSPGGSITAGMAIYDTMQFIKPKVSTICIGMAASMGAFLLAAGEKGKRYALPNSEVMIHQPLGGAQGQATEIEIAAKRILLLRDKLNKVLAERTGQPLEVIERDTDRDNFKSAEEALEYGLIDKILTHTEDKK
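Purified B. subtilis ClpP, 10 microg/mL final in Tris/HCl pH8 with KCl, BSA, glycerol and Tween-20, cleaved an Abz/nitrotyrosine-quenched decapeptide. Fluorescence (ex 320, em 430) was read at 0 and 20 min at room temperature. Delta was normalized to 5.8 microM ADEP and DMSO/no-enzyme controls.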
* = called active by the depositor; ? = inconclusive; · = no result given; & = joins results of further samples; [ ] = dose if it differs, or a comment.

SMILES	Sfp inh	gsp antagonist	TRPV1 PAM	Menin-MLL FL inh	gsp ag	TRPML1 inh	ClpP mod
CCc1ccc(NCc2nc3ccccc3c(=O)[nH]2)cc1	4%	2%	3	1.0	14%	11	-2.6%
CCCCOc1ccc(S(=O)(=O)N2CCN(c3ccc(N4CCN(CC)CC4)nn3)CC2)cc1	·	11%	-3	·	-2%	-7	-5.2%
COc1ccc(S(=O)(=O)NCC2CCCN(Cc3cccnc3)C2)cc1 (centres undefined)	-21%	5%	-4	5.9	25%	-15	-2.8%
Cc1cccc(-n2ncc3c2CCCC3NC(=O)CCN2Cc3ccccc3C2=O)c1C (centres undefined)	8%	-9%	-1	4.4	-3%	-1	-1.3%
COc1ccc(C2(CCN=Cc3ccc(N(C)C)cc3)CCOC(C)(C)C2)cc1 (centres undefined)	5%	0%	13	?	-10%[15.4 µM]	0	·
O=C(Cc1cccs1)Nc1nc(-c2ccc(F)cc2F)cs1	-13%	?	19	3.9	-12%	32	-4.1%
O=C(c1nn(Cc2ccccc2)c(=O)c2ccccc12)N1CCN(c2ccccn2)CC1	2%	-1%	-8	-0.1	1%	10	0.8%
COc1ccc(C(=O)Nc2nc(C)c(C(C)=O)s2)cc1S(=O)(=O)N1CCOCC1	·	?	22	·	6%	-14	-4.0%
CC1CCc2[nH]c3ccc(C(=O)NCC4CCCO4)cc3c2C1 (centres undefined)	·	-1%	-8	·	55%[15.4 µM]	4	·
Cc1ccc(NC(=O)CSc2nnc(-c3ccco3)n2N)cc1F	11%	6%	19	-2.3	18%	-8	0.2%
CC1CCCC(NC(=O)COC(=O)Cc2cn3ccsc3n2)C1C (centres undefined)	-13%	-10%	5	5.5	12%[15.4 µM]	20	0.2%
COc1ccc(-c2nn(C)c3sc(C(=O)NCCN(C)C)cc23)cc1OC	-14%	0%	1	0.3	7%	2&29	-2.6%
Cc1ccc2[nH]c3c(=O)n(CC(=O)NCCCN(C)Cc4ccccc4)ncc3c2c1	6%	3%	10	-0.6	1%	-5	-22%
O=C(c1cccc(C(F)(F)F)c1)C1CCCN(C(=O)CCCn2cncn2)C1 (centres undefined)	9%	2%	-2	2.0	-9%[15.4 µM]	3	·
CN1CCCN(C(=O)Cc2c(Cl)cccc2Cl)c2nc3ccccc3nc21	-6%	-28%	-14	8.2	17%	9	-17%
Cc1cc(C)n(CC(=O)N/N=C/c2ccc3c(c2)OCO3)n1	-2%	9%	10	-2.9	-1%[15.4 µM]	3	·
Cc1ccc(-c2[nH]c3ccccc3c2SCCNC(=O)c2ccc(S(=O)(=O)N3CCOCC3)cc2)cc1	9%	-16%	15	4.7	-21%	25&29	-5.3%&-3.5%
CC1CCc2c(sc3nc(CSc4nnnn4C)[nH]c(=O)c23)C1 (centres undefined)	0%	-2%	?	5.3	-5%[15.4 µM]	-6	·
Cc1ccc(-n2c(SCc3cc(=O)n4ccsc4n3)nnc2-c2cccnc2)c(C)c1	-5%	1%	3	1.2	-34%[inhibitor]	-2	-1.7%
Cc1cc(C)cc(N=c2c([N+](=O)[O-])nn(-c3cccc(Cl)c3)n2O)c1	-5%	5%	-7	2.2	-2%	8	1.9%
COc1ccccc1-n1c(N)c(C(=O)NCC2CCCO2)c2nc3ccccc3nc21 (centres undefined)	8%	-6%	-17	3.1	-6%	-3	25µM*
COc1ccc(Br)c(C(=O)OCC(=O)NC(=O)NC2CCCC2)c1	·	-8%	·	·	-72%[inhibitor]	-2	0.6%
COc1ccccc1C(=O)NC(=O)COC(=O)c1nc2nc(C)cc(C)n2n1	·	15%	4	·	?	5	-6.2%
COCCn1nc2cc(C(=O)NCc3cc(C(F)(F)F)cc(C(F)(F)F)c3)ccc2c1OC	15%	0%	6	-2.0	·	-2	4.1%
CCOc1ccc(CCNC(=O)CN2C(=O)NC(CCSC)C2=O)cc1OCC (centres undefined)	12%	2%	11	-1.2	?	-6	-0.8%
SMILES	Sfp inh	gsp antagonist	TRPV1 PAM	Menin-MLL FL inh	gsp ag	TRPML1 inh	ClpP mod
COc1ccc(OC)c(C2CC(=O)C(C)C(c3cc(OC)ccc3OC)N2)c1 (centres undefined)	9%	3%	12	1.0	?	4	-0.8%
Cc1cccc(N2C(=O)C3CCC(c4ccccc4)CC3C2=O)c1 (centres undefined)	-21%	-11%	4	5.1	16%[15.4 µM]	-11	0.7%
CNc1nc(OCC(F)(F)F)nc(N2CCOCC2)n1	-1%	-4%	-9	3.0	7%	-12	0.8%
C/C(=N\NC(=O)c1ccco1)c1ccc(-c2ccccc2)cc1	-5%	-23%	4	4.5	-1%	-3	·
CC(=O)N1N=C(c2ccccc2)CC1c1cn(Cc2ccccc2)c2ccccc12 (centres undefined)	-10%	-5%	-11	14	-7%[15.4 µM]	9	-17%
CCc1nnc(NC(=O)c2ccc(S(=O)(=O)NCC(C)C)cc2)s1	23%	-6%	-3	3.4	13%	2	-0.4%
N#Cc1cc([N+](=O)[O-])ccc1NCCCn1ccnc1	16%	4%	3	0.9	1%[15.4 µM]	-8	·
COc1ccc(-c2cc(-c3ccccc3)no2)cc1	·	-3%	8	·	·	14	-3.3%
COc1ccc(C)cc1NC(=O)CCS(=O)(=O)c1ccc2c(c1)oc(=O)n2C	11%	4%	23	·	26%	-11	-0.4%
CCN(CC)c1ccc(/C=C(\C#N)C(=O)NCc2ccccc2)cc1	2%	-21%	15	?	2%[15.4 µM]	10	-1.8%
O=C(CC(c1ccccc1)C1CCCCC1=O)c1ccco1 (centres undefined)	-10%	11%	2	5.6	3%	0	0.6%
CCCCC(CC)CNC(=O)Cn1c(=S)[nH]c2ncccc2c1=O (centres undefined)	13%	·	4	-5.9	·	·	·
CCCCNC(=S)NNC(=O)c1c(Cl)c(C)nn1C	12%	6%	11	5.0	-15%	-1	-2.9%
Cc1cc(OCC(=O)N(C)Cc2ccccc2)ccc1Cl	6%	0%	-9	-10	19%[15.4 µM]	7	2.3%
COCCNC(=O)c1cc(-c2ccccc2OC)on1	12%	8%	·	3.0	9%	30	-27%
CC(C)(O)CC[C@H](OC(=O)c1ccccc1)[C@](C)(O)[C@H]1CC[C@@]2(O)C3=CC(=O)[C@@H]4C[C@@H](O)[C@H](O)C[C@]4(C)C3CC[C@]12C (some centres undefined)	15%	0%	5	3.5	22%	-12	0.8%
Cc1ccc2oc(-c3ccccc3C(=O)O)cc(=O)c2c1	-5%	9%	-4	1.2	-11%	-3	?
O=C(CSc1nc(-c2ccc(Cl)cc2)cs1)Nc1cccc([N+](=O)[O-])c1	5%	?	9	3.4	-53%[inhibitor]	1	-0.6%
CC1=C(C(=O)OC(C)C)C2(O)C(=O)c3ccccc3C2(O)N1 (centres undefined)	-17%	-4%	-4	0.8	5%	-10	-2.2%
CCC(=O)Nc1ccc(S(=O)(=O)Nc2cc(C)on2)cc1	4%	2%	19	-2.2	-2%	-20	-0.1%
CC(C)(C)C1CCc2c(sc(N)c2C(N)=O)C1 (centres undefined)	50µM*	-4%	6	8.7	-2%[15.4 µM]	0	-0.1%
Cc1ccccc1C1CCCN(C(=O)c2cc(COc3c(F)cccc3F)on2)C1 (centres undefined)	0%	-21%	9	-3.8	?	12	3.0%
COc1ccc(C2/C(=C(/O)c3ccc(F)cc3)C(=O)C(=O)N2c2ccccn2)cc1OC (centres undefined)	11%	0%	-3	0.2	14%	-8	·
O=C(COC(=O)c1cc(Br)ccc1O)c1ccc(F)cc1	·	?	·	·	13%[15.4 µM]	24	-0.4%
CC(=O)OCCNC(=O)Cn1cnc2c1c(=O)n(C)c(=O)n2C	20%	16%	-1	2.3	?	8	0.4%
SMILES	Sfp inh	gsp antagonist	TRPV1 PAM	Menin-MLL FL inh	gsp ag	TRPML1 inh	ClpP mod
CSc1ccc(CN(C)C(=O)CSCC(=O)Nc2ccc(C)cc2)cc1	·	-3%	-8	·	-10%	-13	-0.5%
O=C(N/N=C/c1ccsc1)c1ccccn1	?	4%	-26	-0.4	13%	?	·
O=C(Nc1nnc(C2CCCC2)s1)C1CCN(S(=O)(=O)c2ccc(Cl)cc2)CC1	13%	6%	-8	2.1	4%	-5	1.5%
COC(=O)CSc1nnc(CCc2ccccc2)n1C	6%	-9%	3	0.9	3%[15.4 µM]	29	0.9%
CCCCCCCCCNC(=O)[C@H](NC(=O)COc1ccccc1)[C@@H]1NC(C(=O)OC)C(C)(C)S1 (some centres undefined)	·	-3%	·	·	1%	-10	-5.8%&0.2%
CC(NC(=S)Nc1ccccc1)C(c1cccs1)N1CCOCC1 (centres undefined)	17%	2%	20	2.0	2%	2	-2.1%
O=C(O)C1C2OC3C(OC(=O)C31)C2Br (centres undefined)	·	7%	·	·	13%	-7	·
Cc1cccc(CN2CCc3c([nH]c4ccccc34)C2C(C)(C)C)n1 (centres undefined)	-11%	-2%	-14	-0.4	-35%[inhibitor]	-4	·
COC(=O)C1=C(C)NC(=S)NC1c1ccc(OC(=O)c2ccco2)cc1 (centres undefined)	15%	18%	0	6.7	-9%[15.4 µM]	13	·
O=C(NCCN1CCOCC1)N1c2ccccc2Sc2ccccc21	18%	0%	1	3.8	17%	0	-0.2%
CCOC(=O)CNc1c(-c2ccc(OC)cc2)nc2ccc(Cl)cn12	7%	-6%	-19	-2.6	?	-13	-8.8%
O=C(NCC(c1cccs1)N1CCOCC1)c1ccc(Cl)c([N+](=O)[O-])c1 (centres undefined)	12%	-3%	2	-1.9	9%	-10	-0.6%

A portion from the list above, as a working copy:
SMILES	Sfp inh	gsp antagonist	TRPV1 PAM	Menin-MLL FL inh	gsp ag	TRPML1 inh	ClpP mod
CC(NC(=S)Nc1ccccc1)C(c1cccs1)N1CCOCC1 (centres undefined)	17%	2%	20	2.0	2%	2	-2.1%
O=C(O)C1C2OC3C(OC(=O)C31)C2Br (centres undefined)	·	7%	·	·	13%	-7	·
